HPGD block: qHTS Assay for Inhibitors of HPGD (15-Hydroxyprostaglandin Dehydrogenase). 15-hydroxyprostaglandin dehydrogenase [NAD(+)] (Homo sapiens), P15428. purified HPGD, NADH fluorescence kinetic, PGE2 substrate. Potency, µM, for inactives: top-dose activity change, negative = inhibition, most hits filed as inhibitors. actives 4.3% (n = 150,000); active = well fitted inhibition curve with a large enough effect (not every such curve was filed as active); inconclusive = small, poorly fitted or top-dose-only effect, or another doubt; inactive = no such curve, though single readings can be large or run the other way;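 note: top concentration of the series not given in the record; plate controls included wells without enzyme; inactives centre near -10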
Target sequence (P15428 whole entry, looked up): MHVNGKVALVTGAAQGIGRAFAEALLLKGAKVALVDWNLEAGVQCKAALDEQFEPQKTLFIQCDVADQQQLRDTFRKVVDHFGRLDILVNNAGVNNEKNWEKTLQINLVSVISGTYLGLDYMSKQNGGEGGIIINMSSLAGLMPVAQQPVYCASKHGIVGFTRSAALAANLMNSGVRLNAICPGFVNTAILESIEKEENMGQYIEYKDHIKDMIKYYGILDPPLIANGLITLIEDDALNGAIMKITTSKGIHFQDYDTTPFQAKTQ
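20 nM HPGD preincubated 15 min at room temperature with compound in 50 mM Tris-HCl pH 8, 0.01% Tween 20. Started with 1 mM NAD+ and 30 uM prostaglandin E2; NADH fluorescence (360/450 nm) read 5 times over 30-s intervals, last minus first.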
An asterisk follows results filed as active; u = inconclusive; & = joins results of further samples; [ ] = another dose, or the depositor's remark. % is set by controls: 0 for no effect and ±100 for the full control effect; potency is the fitted concentration of half-maximal effect.

SMILES	HPGD block
CN(C1CCS(=O)(=O)C1)S(=O)(=O)c1cccc2nsnc12 (centres undefined)	-13.2%
CC(=O)Nc1ccc(C(=O)N(C)c2ccccc2)cc1	-24.1%
Cc1cc(C)nc(SCC(=O)N2CCCCC2)n1	7.94µM*
COCCNc1nc(C)nc2c1nc(-c1ccccc1)n2CCN1CCCCC1	u
O=C(NCC1CCCO1)C1CCN(S(=O)(=O)c2cccc3nonc23)CC1 (centres undefined)	-6.8%
Cc1ccc(CC2S/C(=C(/C#N)C(=O)NCc3ccco3)N(c3ccccc3)C2=O)cc1 (centres undefined)	-19.3%
COc1ccc(C2=NOC(C(=O)Nc3ccc(C)cc3)C2)cc1OC (centres undefined)	-9.1%
CN(C)CCCn1c(NC(=O)C2CCCCC2)nc2ccccc21	-5.1%
Cc1ccc(NS(=O)(=O)c2ccccc2)c2c1CC(C)(C)O2	-3.8%
CCN(CC)c1ccc(/C=N/N2CCOCC2)c(O)c1	-13.6%
O=C(N/N=C/c1ccc(OC(F)F)cc1OC(F)F)c1ccc(Br)cc1	-18.7%
Clc1ccc(OCc2nn3c(-c4ccco4)nnc3s2)cc1	u
Cc1ccc(S(=O)(=O)c2cc3c(=O)n4ccccc4nc3n(C)c2=N)cc1	u
CC(=O)NC(CCCN1C(=O)c2ccccc2C1=O)c1nnn(C)n1 (centres undefined)	-3.4%
COc1cccc(OC)c1OCCOCCn1cnc2ccccc2c1=O	-13.0%
COc1ccc(NC(=O)C(c2ccc(C)cc2)N(C)C(=O)c2cnccn2)cc1 (centres undefined)	-12.6%
CCCCn1nc2cc(C(=O)NCC3CC3)ccc2c1OCC	u
COc1ccc2nc(SCC(=O)Nc3ccccc3C)[nH]c2c1	-19.8%
CCOC(=O)c1c(C)[nH]sc1=S	u
CC1=NN(C(=O)c2ccccc2Br)C(O)(c2cccnc2)C1 (centres undefined)	-6.8%

The list goes on, overlapping the part above by 4 compounds.
SMILES	HPGD block
CCCCn1nc2cc(C(=O)NCC3CC3)ccc2c1OCC	u
COc1ccc2nc(SCC(=O)Nc3ccccc3C)[nH]c2c1	-19.8%
CCOC(=O)c1c(C)[nH]sc1=S	u
CC1=NN(C(=O)c2ccccc2Br)C(O)(c2cccnc2)C1 (centres undefined)	-6.8%
Cc1ccc(Cn2c(CN(C)Cc3ccccc3)nc3c2c(=O)n(C)c(=O)n3C)cc1	-8.4%
Cc1ccc(-c2c[n+](CC(=O)OCc3ccccc3)c3n2CCC3)cc1	-6.7%
Cc1ccc(S(=O)(=O)N/N=C\c2cc3c(cc2Br)OCO3)cc1	-3.9%
O=C(Nc1ccc(N2CCOCC2)nc1)c1ccc(Cl)cc1	-3.9%
COc1ccc(NCC(=O)N/N=C/c2ccc3c(c2)OCCO3)cc1	-11.5%
NCC(O)c1ccc(O)c(O)c1 (centres undefined)	4.6%
CCOC(=O)C1=NNC2C(=O)N(CC)C(=O)C12 (centres undefined)	-8.6%
NC(=S)N/N=C\c1c[nH]c2ccccc12	-12.7%
Oc1ccc(CN2CCN(Cc3ccccc3)CC2)c2cccnc12	-18.5%
O=C(Cc1ccccc1)NCC(=O)OCC(=O)c1ccc(OC(=O)c2ccccc2)cc1	-3.1%
O=C(c1cc2ccccc2o1)N1CCN(S(=O)(=O)c2cccs2)CC1	-11.3%
N#Cc1cccc(-n2c(-c3ccccc3)nnc2-c2ccccc2)c1C#N	-9.1%
c1ccc(Cn2c(NCc3ccco3)nc3ccccc32)cc1	1.7%
Cc1cnc(NC(=O)CSc2nnc(CNc3ccc(F)cc3)n2CC2CCCO2)s1 (centres undefined)	-14.6%
COc1cccc(Cn2c(=O)c(-c3ccc(F)c(F)c3)nc3cncnc32)c1	-20.8%
Cc1ccc(C)c(OCCCN2CCCC2)c1	6.2%
CC1Cc2nc(SCC(=O)N3CCCc4ccccc43)n(C)c(=O)c2S1 (centres undefined)	-11.5%
Cc1noc(NS(=O)(=O)c2ccc(N/C=C/C(=O)c3ccncc3)cc2)c1C	-19.9%
CCOC(=O)c1ccc(OC(=O)CCCCCN=C(N)N)cc1	5.4%&-2.3%
COc1cc(CC(=O)OCC(=O)Nc2ccc(S(=O)(=O)N3CCCC3)cc2)cc(OC)c1OC	-2.9%
O=C(Nc1ccc(C(F)(F)F)cc1-c1ccccc1)c1ccccc1	-28.6%
COc1ccc(C(C)=O)cc1CN1C(=O)NC2(CCCCCC2)C1=O	-0.5%
Cc1cccc(N2C(=O)c3cccnc3C2=O)c1	-8.2%
O=[N+]([O-])c1ccc(/C=N/n2c(COc3ccccc3)n[nH]c2=S)cc1	5.01µM*
Cc1cc(OCCn2ccnc2)cc(C(C)C)c1	2.4%
Cc1nc(SCc2ccc([N+](=O)[O-])cc2)nc2ccccc12	-11.8%
Cc1ccc(-c2nnc(SCC(=O)N3CC(C)CC(C)C3)o2)cc1C (centres undefined)	u
CCOC(=O)c1cnc2c(N=Nc3cccc(Cl)c3)c(N)nn2c1N	-9.5%
CC(=O)Nc1ccc(OCC(O)CN2C(C)CCCC2C)cc1 (centres undefined)	2.4%
O=C(NCc1ccc(F)cc1)c1cc2sccc2n1Cc1ccc(F)cc1	u
COC(=O)CCC(=O)OC1(C)C(=O)C=C2C=C(C3CC3)N(Cc3ccc(OC)cc3)C=C2C1=O (centres undefined)	-4.3%
Cc1nn(C2CCS(=O)(=O)C2)c(Cl)c1/C=C/C(=O)OCC(=O)c1cc(C)n(-c2ccc(F)cc2)c1C (centres undefined)	-13.8%
CCOC(=O)/C=c1\sc2n(c1=O)CCN=2	u
CC(=O)Nc1ccc(NC(=O)CSC2=NCCS2)cc1	-7.2%
Cc1cc2n(n1)SC(Nc1cccc3ccccc13)N2 (centres undefined)	-20.9%
CCOC(=O)N1CCN(C(=O)Nc2ccc3nccnc3c2)CC1	u
Cc1ccc(C(NC(=O)NC(C)c2ccccc2)C(Cl)(Cl)Cl)cc1F (centres undefined)	-0.9%
C=CCNC(=S)NNC(=O)COc1c(Cl)cc(Cl)cc1Cl	-21.2%
COc1cccc(C2C=C(c3ccc(OC)cc3OC)Nc3nnnn32)c1 (centres undefined)	-19.8%
COc1ccc(-c2nnc(NC(=O)C3CCCO3)s2)cc1 (centres undefined)	u
Cc1ccc(S(=O)(=O)/C=C2\NC(=O)CS2)cc1	-10.0%
O=C1CCCC/C1=C\Nc1ccc(Cl)cn1	-18.2%
COCCNC(=O)/C(C#N)=C/c1cccc(/C=C(\C#N)C(=O)NCCOC)c1	25.1µM*
COc1ccccc1/C=N/n1c(N)c(C(=O)NC2CCCCC2)c2nc3ccccc3nc21	303.2%[activator]
O=C(Cn1cnc2c(nnn2Cc2ccc(F)cc2)c1=O)NCc1ccc2c(c1)OCO2	-18.7%
COc1cc(OC)c(C2SCCS2)c(OC)c1	-7.3%
Clc1ccc(N2CCN(c3cnc4ccccc4n3)CC2)cc1	-24.6%
CCCOC(=S)Nc1ccccc1	22.4µM*
CC(C)Oc1ccc(C(=O)Nc2ccc(NC(=O)c3ccco3)c(Cl)c2)cc1	-30.9%
CCCn1c(SCC(=O)OCc2ccccc2)nc2c1c(=O)n(C)c(=O)n2C	-5.6%
O=C(Cn1nnc2c(cnn2-c2ccc(F)cc2)c1=O)c1ccccc1F	-18.3%
CC1CCN(CCNC(=O)CN(C)S(=O)(=O)c2cccc3nsnc23)CC1	-10.3%
Cc1ccc(/C=N/NC(=O)CSc2nnc(-c3ccc(Cl)cc3)n2-c2ccccc2)o1	u
CCOC(=O)Oc1ccc2c(c1)C(C)=CC(C)(C)N2C(=O)OCC	-12.3%
O=S(=O)(NC1c2cccc3cccc(c23)C1N1CCNCC1)c1ccccc1 (centres undefined)	-7.8%
O=C(NC(=S)NCC1CCCO1)c1cccc([N+](=O)[O-])c1 (centres undefined)	2.0%
COc1ccccc1NC(=O)CSc1nc2sc(C)c(C)c2c(=O)n1Cc1ccco1	-18.7%
C[N+](C)(CC#Cc1ccccc1)CC(=O)c1ccccc1	1.0%
O=[N+]([O-])c1ccc([C@@H](Nc2ccccc2)c2ccc3cccnc3c2O)cc1	-12.5%
Cc1ccc(N(C(=O)c2ccc(Br)o2)C2C=CS(=O)(=O)C2)cc1 (centres undefined)	0.0%

The last three compounds of the part before are carried over, then new ones follow:
SMILES	HPGD block
C[N+](C)(CC#Cc1ccccc1)CC(=O)c1ccccc1	1.0%
O=[N+]([O-])c1ccc([C@@H](Nc2ccccc2)c2ccc3cccnc3c2O)cc1	-12.5%
Cc1ccc(N(C(=O)c2ccc(Br)o2)C2C=CS(=O)(=O)C2)cc1 (centres undefined)	0.0%
COc1ccc2[nH]c(=O)c(CN(Cc3cccs3)C(=S)Nc3ccccc3)cc2c1	-18.0%
CCc1[nH]nc2c1C(c1cccc(OC(=O)N3CCOCC3)c1)C(C#N)=C(N)O2 (centres undefined)	-11.8%
CCOC(=O)c1oc2ccc(S(=O)(=O)n3nc(-c4ccc(Cl)cc4)cc3N)cc2c1C	-12.8%
CCC(Sc1nc2cc3c(cc2c(=O)n1Cc1ccco1)OCO3)C(=O)NCCOC (centres undefined)	-5.2%
O=[N+]([O-])c1ccc(Sc2cccc3cccnc23)cc1	-19.1%
Cc1c(C(=O)NCCN2CCOCC2)oc2ccccc12	-7.3%
CCOc1ccc2[nH]c(=O)c(CN(CCc3ccccc3)C(=O)N3CCOCC3)cc2c1	u
O=C(/C=C/c1ccccc1Cl)N(c1ccccn1)C1CCCCC1	-16.6%
CCc1ccc(NC(=O)CCN2C(=O)c3cccnc3C2=O)cc1	-7.3%
Cc1ccc(C)c(N(C(=O)Cc2cccs2)C(C(=O)NC2CCCC2)c2ccc(C)o2)c1 (centres undefined)	-4.4%
CCCCn1c(CN2C(=O)c3ccccc3C2=O)nc2ccccc2c1=O	-10.6%
COCCNC(=S)N1C2CCC1CC(NC(=O)NC13CC4CC(CC(C4)C1)C3)C2 (centres undefined)	-1.8%
CC(O)CCC(=O)NCCNC(=O)CCC(C)O (centres undefined)	-5.2%
O=C(NC(=S)Nc1nc(-c2ccccc2)cs1)c1cccs1	-28.9%
O=C(NNC(=O)c1cc(-c2ccc(Cl)cc2Cl)nc2ccccc12)Nc1ccccc1	-12.9%
Nn1c(-c2ccco2)n[nH]c1=S	-20.4%
c1ccc2sc(N3CCOCC3)nc2c1	-8.4%
O=C(NCC1CCCO1)C1C2C=CC3(CN(Cc4cccs4)C(=O)C13)O2 (centres undefined)	-2.4%
Cc1ccc(C2=NN(S(C)(=O)=O)C(c3ccc4nccnc4c3)C2)cc1 (centres undefined)	-13.3%
COc1ccccc1-c1cc(C(=O)Nc2sc3c(c2C#N)CCC(C)C3)c2ccccc2n1 (centres undefined)	u
Cc1cc(=S)[nH]c2c(C)cccc12	-15.5%
CCOC(=O)c1c(C)[nH]c(=S)c(C#N)c1-c1ccc(OC)cc1	u
COC(=O)c1c(NC(=O)Cc2cccs2)sc2c1CCCC2	-17.6%
CCN1CCN(CCCNC(=O)c2cc3sccc3n2CC)CC1	-16.5%
CC1CC/C(=N/Nc2ccccc2)C(=O)N1 (centres undefined)	-3.0%
Cc1ccc(C2=NN=C(NC(=O)CSc3nc(C)cc(C)n3)SC2)cc1	u
CC(=O)c1ccc(OCC(O)CN2C(C)CCCC2C)cc1 (centres undefined)	-6.4%
COc1c(S(=O)(=O)n2nc(C)cc2C)ccc(Cl)c1Cl	22.4µM*
O=C1CCN(Cc2nnnn2CC2CCCO2)c2ccccc2N1 (centres undefined)	-13.4%
COc1ccc(NC(=O)/C(=C\c2cccnc2)NC(=O)c2cccs2)cc1	-1.7%
FC(F)(F)c1cc(-c2ccco2)nc(N2CCOCC2)n1	-8.0%
Cc1cccc(NC(=O)C2CCCN(S(=O)(=O)c3cccc4cccnc34)C2)c1 (centres undefined)	-7.4%
CCOC(=O)c1c(NC(=O)c2ccc(C)cc2)sc2c1CC(C)(C)OC2	u
CCc1cccc(CC)c1N(COC)C(=O)Cn1c(CO)nc2ccccc21	-2.4%
CC(=O)c1c(C)[nH]c(C(=O)N2CCN(C(=O)c3ccco3)CC2)c1C	-9.8%
COc1ccc(/C=N/NC(=O)c2nn(-c3ccc(Cl)cc3)c(=O)c3c(N)scc23)cc1	11.2µM*
CCN(CC)C(=O)N1CCN(S(=O)(=O)c2ccc(C)c(C)c2)CC1	-3.7%
COCCN1C(=O)C(=O)/C(=C(/O)c2cccc(S(=O)(=O)N(C)C)c2)C12C(=O)N(C)c1ccccc12 (centres undefined)	-9.0%
Cc1ncc(CSC(=N)N)n1Cc1ccccc1	-8.6%
C=CC(C1=CC(=O)C(OC)=CC1=O)c1ccccc1 (centres undefined)	u

Quoted from the listing:
Value for Cc1ncc(CSC(=N)N)n1Cc1ccccc1 under HPGD block: -8.6%
Value for CC1CC/C(=N/Nc2ccccc2)C(=O)N1 (centres undefined) under HPGD block: -3.0%
Value for COc1c(S(=O)(=O)n2nc(C)cc2C)ccc(Cl)c1Cl under HPGD block: 22.4µM*
Value for CC(=O)c1ccc(OCC(O)CN2C(C)CCCC2C)cc1 (centres undefined) under HPGD block: -6.4%
Value for CCc1cccc(CC)c1N(COC)C(=O)Cn1c(CO)nc2ccccc21 under HPGD block: -2.4%

Continuation:
SMILES	HPGD block
CC1(C)CC(N2CCC(=O)N(C3CC(C)(C)NC(C)(C)C3)C2)CC(C)(C)N1	-1.5%
C/C(=N\NC(=O)c1cccnc1)c1c(O)cc(C)oc1=O	-18.5%
Cc1ccc2nc(Cl)c(/C=N/NC(=O)[C@H]3C[C@@H]3c3ccccc3)cc2c1	-26.6%
Cc1cc(C)n(-c2ccc(C(=O)OCC(=O)Nc3ccc(Cl)cc3[N+](=O)[O-])cc2)n1	-7.2%

Source: PubChem (National Center for Advancing Translational Sciences (NCATS))

Some of the compounds tested; rates above refer to the full screens.
